Compound activity deposited in PubChem by several laboratories.
PKD1 kinase inh – inhibitors of human PKD1 kinase; Q15139; PKD1 kinase fluorescence polarization assay; inhibition, %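 (about 10 µM by stock and volumes)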; 200,000 compounds, 0.056% hits;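 active = inhibition of 50% or more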;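 note: controls were vehicle for no effect and a reference inhibitor for full effect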
Target sequence (Q15139 whole entry, looked up): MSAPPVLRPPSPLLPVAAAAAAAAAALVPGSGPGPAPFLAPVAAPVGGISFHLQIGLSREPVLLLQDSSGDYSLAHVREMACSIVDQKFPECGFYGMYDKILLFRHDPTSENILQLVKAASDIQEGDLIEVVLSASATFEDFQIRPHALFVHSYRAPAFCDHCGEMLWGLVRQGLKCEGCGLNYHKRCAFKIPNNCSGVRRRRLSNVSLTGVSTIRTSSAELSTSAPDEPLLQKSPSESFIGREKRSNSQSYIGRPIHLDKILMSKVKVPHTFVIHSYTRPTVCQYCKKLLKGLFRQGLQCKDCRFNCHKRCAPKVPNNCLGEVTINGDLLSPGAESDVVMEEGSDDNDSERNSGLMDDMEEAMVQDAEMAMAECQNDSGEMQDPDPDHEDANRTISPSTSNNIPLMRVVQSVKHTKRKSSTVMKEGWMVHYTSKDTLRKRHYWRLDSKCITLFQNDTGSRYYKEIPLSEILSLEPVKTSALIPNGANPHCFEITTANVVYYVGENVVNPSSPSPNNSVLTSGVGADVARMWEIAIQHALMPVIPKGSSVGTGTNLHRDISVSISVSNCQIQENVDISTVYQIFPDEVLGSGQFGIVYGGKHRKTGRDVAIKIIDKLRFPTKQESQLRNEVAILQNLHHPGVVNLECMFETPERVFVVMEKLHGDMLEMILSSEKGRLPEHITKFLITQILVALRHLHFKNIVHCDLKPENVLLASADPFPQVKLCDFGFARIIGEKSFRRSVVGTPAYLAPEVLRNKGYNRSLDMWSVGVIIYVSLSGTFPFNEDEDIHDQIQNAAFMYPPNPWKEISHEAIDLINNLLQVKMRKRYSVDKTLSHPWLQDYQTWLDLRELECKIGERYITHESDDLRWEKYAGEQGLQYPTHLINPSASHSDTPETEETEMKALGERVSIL
INS promoter inh – TRM-6 insulin promoter activity inhibition. 130,000 compounds, 0.9% hits. inhibition, % at 2 µM. AID 1273. TRM-6 cells (human fetal islet line), insulin promoter-eGFP reporter, imaging; reporter expression induced with tamoxifen;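 active = inhibition above the mean plus 3 SD, with well images judged a real hit on visual review, cut at about 60% in these data, passing the limit was not always enough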
GALR2 ag – activates the human galanin receptor 2 | O43603 | activation, %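 (tested at 5 µM)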 | AID 803 | 140,000 compounds, 0.48% hits | GALR2-expressing cells, agonist activation read-out;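 active = above mean plus 3 SD of all compounds, about 5% in these data, not always enough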;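 note: 0% = vehicle buffer wells and 100% = reference agonist at full effect; tested in CHO reporter cells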
HSV replic up – HSV replication enhancement; HSV replication augmentation in cells, fold increase; maximum fold increase; 220,000 compounds, 0.005% hits; AID 1956;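 active = peak rise of 1.5-fold or more in the series; tested in PC3 cells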;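 note: first round at 10 µM; read as green reporter fluorescence; hits show the peak of a series up to 25 µM; 1 = signal of infected wells without compound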
RGS16-Gao – regulators of human RGS16-Galphao interaction. O15492+P09471. bead-based flow cytometry RGS16-Galphao binding, fluorescence; actives lie on both sides. binding response (% of control), % at 10 µM. 220,000 compounds, 0.38% hits. AID 1441;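 active = below 25% or above 175%, edge rows of some plates excepted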;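 note: Galphao activated by GDP with aluminum fluoride before binding; 100% = wells without compound and 0% = beads without RGS; some results beyond the cut were filed as inactive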
INS promoter inh cell count – second read-out of INS promoter inh, no call of its own (marks repeat the call); normalized cell count, %; measured here: cell count, toxicity; reference of the scale not given here;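 cells exposed to compound for 48 h; stained nuclei by imaging scaled within each plate; lower means fewer cells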
HSV replic up primary fold – further read-out of HSV replic up, marked with its call; fold increase; compound at 10 µM; measured here: primary screen fold increase 10 uM; tested in PC3 cells;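 GFP signal in the first replicate; 1 = infected wells without compound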
An asterisk follows results filed as active; i = inactive; x = no result given.

# | Compound | PKD1 kinase inh | INS promoter inh | INS promoter inh cell count | GALR2 ag | HSV replic up | HSV replic up primary fold | RGS16-Gao
1 | Cc1cc(NC(=O)Nc2cccc(Cl)c2)n(-c2ccccc2)n1 | x | x | x | x | i | 0.9 | 109.0
2 | Cc1cc[n+]2c3c(cccc13)CCC2 | 1.1 | 32.3 | 59.6 | -1.2 | i | 0.99 | 100.7
3 | CCn1c(O)c(N=NC(=O)c2cccs2)c2ccccc21 | 0.1 | 50.0 | 56.7 | x | i | 1 | 101.2
4 | C/C(=N/NC(=O)CNC(=O)Cc1ccccc1)c1ccco1 | -11.5 | -7.4 | 101.5 | 0.4 | i | 1 | 102.5
5 | O=C(c1ccco1)N1CCN(c2nc3ccccc3n3nnnc23)CC1 | 11.3 | x | x | -0.8 | i | 1 | 99.0
6 | Nc1nc2n(n1)C(c1cccs1)CC(c1ccc(F)cc1)N2 (stereo unspecified) | -3.6 | 40.0 | 113.1 | -3.2 | i | 0.98 | 101.8
7 | N/C(=N\O)c1ccc(NC(=O)c2cccs2)cc1 | -4.6 | 19.3 | 129.2 | 25.2* | i | 0.89 | 109.0
8 | CC(=O)c1ccc(OC(=O)c2ccc(-n3nc(C)cc3C)cc2)cc1 | -5.3 | -46.7 | 137.8 | x | i | 0.83 | 98.6
9 | COc1ccc(Nc2ncnc3c2cnn3Cc2ccccc2)cc1 | -8.2 | -92.3 | 72.0 | -1.9 | i | 0.92 | x
10 | Cn1nccc1-c1cc(Cl)cc(Cl)c1O | x | x | x | x | i | 0.86 | 106.1
11 | Cc1ccnc(SCc2cc(=O)c(OC(=O)c3ccc(Cl)c([N+](=O)[O-])c3)co2)n1 | -1.9 | -14.8 | 79.3 | -0.5 | i | 1 | 61.8
12 | CCCCNC(=O)C1CCCN(S(=O)(=O)CC)C1 (stereo unspecified) | -7.9 | 0.0 | 100.2 | x | i | 1.04 | 96.4
13 | O=C(COc1ccccc1[N+](=O)[O-])N/N=C/c1ccc(O)c([N+](=O)[O-])c1 | -0.9 | x | x | x | i | 0.96 | 96.3
14 | O=C(O)c1sc2ncccc2c1OCc1ccccc1 | -2.1 | 23.5 | 136.2 | x | i | 1 | 99.3
15 | C[n+]1c2n(c3ccccc31)N=C(c1ccc(Cl)cc1)CS2 | -5.5 | -6.5 | 137.1 | -3.5 | i | 0.93 | 103.3
16 | BrC(=C\c1ccccc1)/C=N/n1cnnc1 | 0.3 | -120.0 | 33.7 | x | i | 0.6 | 104.7
17 | COC(=O)COc1ccc(S(=O)(=O)NCc2ccco2)cc1 | -10.1 | 68.8 | 108.0 | -1.2 | i | 1.05 | 97.0
18 | Cc1cc(SCC(=O)c2ccc3c(c2)OCO3)nc2ccccc12 | -5.3 | -10.7 | 157.9 | -2.6 | i | 0.89 | 109.7
19 | O=C(O)c1ccc(NC(CSCc2ccccc2F)C(=O)O)c([N+](=O)[O-])c1 (stereo unspecified) | -1.8 | 22.2 | 96.5 | -1.1 | i | 0.97 | 102.0
20 | COc1cc2c(cc1OC)C(c1ccccc1)N(S(C)(=O)=O)CC2 (stereo unspecified) | -5.2 | x | x | x | i | 1.04 | 99.3
21 | Cc1nc(NC(=O)c2ccccc2)sc1C1(C)CC(c2ccccc2F)=NO1 (stereo unspecified) | x | x | x | x | i | 0.96 | 103.5
22 | CCOC(=O)N1CCN(C(=O)CN(C2CCCCC2)S(=O)(=O)c2ccc(C)cc2)CC1 | -4.8 | 4.1 | 161.0 | -2.5 | i | 0.94 | 101.3
23 | Cc1cc(CNC(=O)CCc2nnc(CCCc3ccccc3)o2)nn1C | -2.6 | -42.9 | 70.0 | x | i | 0.9 | 71.6
24 | O=C(Nc1cc(S(=O)(=O)N2CCCCC2)ccc1N1CCCCC1)c1ccncc1 | x | x | x | x | i | 0.95 | 110.6
25 | CCCOc1ccc(/C=N/O)cc1 | -4.4 | -50.0 | 97.1 | 0.4 | i | 1.11 | 95.8
26 | NS(=O)(=O)c1ccc(CCNC(=O)CCC2COc3ccccc3O2)cc1 (stereo unspecified) | -8.4 | -13.3 | 114.3 | -2.7 | i | 0.95 | 107.2
27 | CCOC(=O)CSc1nc2cc(C)cc(C)c2cc1C#N | 0.2 | 63.6 | 168.3 | -2.7 | i | 0.97 | 103.3
28 | Cc1cc2cc(CNC(=O)NC3CCCCC3)ccc2n1C | -15.9 | x | x | 0.8 | i | 1.05 | 91.8
29 | O=[N+]([O-])c1ccc(OCC(O)CN2CCN(c3ccccc3F)CC2)cc1 (stereo unspecified) | -2.6 | x | x | 0.5 | i | 0.94 | 96.8
30 | CC1CCCC(NC(=O)COC(=O)c2ccccc2[N+](=O)[O-])C1C (stereo unspecified) | 0.2 | x | x | x | i | 1.01 | 87.7

(further entries)
# | Compound | PKD1 kinase inh | INS promoter inh | INS promoter inh cell count | GALR2 ag | HSV replic up | HSV replic up primary fold | RGS16-Gao
31 | N/C(Cc1ccc(Cl)cc1)=N\OC(=O)C1CCCCC1 | -0.2 | 30.8 | 73.2 | -1.5 | i | 1.08 | 102.9
32 | Cc1nn(C)c(C)c1NC(=O)c1cnn2c(C(F)F)cc(-c3ccccc3)nc12 | -0.7 | 4.8 | 81.6 | x | i | 1.04 | 105.1
33 | O=C(O)COc1ccc(/C=C2\SC(=Nc3ccccc3)N(c3ccccc3)C2=O)cc1 | -7.3 | -14.3 | 107.4 | x | x | x | 105.4
34 | O=C(c1cc(S(=O)(=O)N2CCOCC2)c(Cl)cc1Cl)N1CCCCC1CO (stereo unspecified) | x | x | x | x | i | 0.97 | 100.0
35 | Cc1ccc(OCCCCn2cnc3ccccc32)cc1 | -4.8 | x | x | x | i | 0.96 | 98.2
36 | COc1ccc(OCCCC(=O)Nc2nncs2)cc1 | -9.7 | -2.6 | 100.0 | -0.8 | i | 1 | 65.5
37 | CC(C)CCNC(=O)C(c1ccncc1)N(Cc1cccs1)C(=O)Cn1nnc(-c2ccc(F)cc2)n1 (stereo unspecified) | -2.3 | -112.5 | 129.5 | -1.0 | i | 0.82 | 107.7
38 | CS(=O)(=O)N(CC(=O)Nc1ccccc1C(=O)N1CCOCC1)c1ccc2c(c1)OCO2 | -12.1 | -47.4 | 111.7 | -1.1 | i | 0.95 | 101.6
39 | Cc1ccc(-c2nc(NCc3cccnc3)c3ccccc3n2)cc1 | -2.0 | x | x | 1.3 | i | 0.94 | 101.0
40 | CCOC(=O)c1sc(=S)n(-c2ccccc2)c1NC(C)=O | x | x | x | x | i | 0.87 | 99.7
41 | COc1ccc(-c2noc(-c3ccccc3C(=O)Nc3cccc(OC)c3)n2)cc1 | 9.8 | -60.0 | 91.4 | -2.0 | i | 0.89 | 103.2
42 | COc1ccc(C2CC(=O)c3c([nH]c(C(=O)OC(C)C)c3C)C2)cc1OC (stereo unspecified) | -3.5 | -18.8 | 47.0 | -1.3 | i | 0.89 | 96.4
43 | Cc1[nH]c(=O)[nH]c(=O)c1N1CCOCC1 | x | x | x | x | i | 1.11 | 96.4
44 | COC(=O)C1CCN(C(=O)Nc2ccccc2)CC1 | -7.0 | x | x | x | i | 0.85 | 92.0
45 | CC(NS(=O)(=O)c1ccc2c(c1)OCCO2)c1ccccc1 (stereo unspecified) | -6.0 | -15.0 | 116.3 | x | i | 0.97 | 102.8
46 | Cc1ccc(/C=N/NC(=O)CSc2nc3ccccc3s2)o1 | -3.6 | 42.9 | 92.7 | -0.4 | i | 0.95 | 98.7
47 | Cc1cc(C)cc(NC(=O)COC(=O)CCc2ccc(S(=O)(=O)N3CCOCC3)cc2)c1 | 0.4 | x | x | x | i | 0.94 | 101.4
48 | CNc1nc(Sc2ccc(C)cc2)cc(C(F)(F)F)n1 | 1.9 | -44.1 | 121.0 | 1.3 | i | 0.83 | 99.4
49 | CC(C)(C)c1cc(C(=O)O)n(Cc2ccc(Cl)cc2Cl)n1 | x | x | x | x | i | 1.13 | 96.0
50 | CN1CC=C2C(C#N)=C(N)C(C#N)(C#N)[C@H](c3cccc(Cl)c3)C2C1 (stereo partly specified) | -0.7 | -7.1 | 44.2 | 0.5 | i | 1.08 | 99.7
51 | COc1ccc(CN2CN(C(C)C)CSC2=S)cc1 | -13.7 | -70.0 | 137.5 | 0.6 | i | 1.12 | 101.8
52 | O=C(N/N=C/C1CC=CCC1)c1cc2ccccc2cc1O (stereo unspecified) | 8.1 | -6.7 | 102.1 | -1.2 | i | 0.91 | 99.5
53 | COc1ccc(C(=O)OCC(=O)Nc2ccc(Cl)cn2)cc1 | 1.1 | 16.7 | 125.9 | x | i | 0.97 | 102.9
54 | CSCCC(C(=O)NC1=NCCS1)N1C(=O)c2ccccc2C1=O (stereo unspecified) | -11.6 | 17.4 | 91.3 | -2.6 | i | 1.21 | 105.1
55 | Clc1ccc(C2[C@H]3CN(Cc4ccc(-c5ccccc5)cc4)[C@H](c4ccccc4)C34CC2(c2ccccc2)C4)cn1 (stereo partly specified) | x | x | x | x | i | 0.925 | 100.3
56 | Cc1nc2c(C)cccc2cc1C(=O)N/N=C/c1ccc(N(C)C)cc1 | -1.7 | -51.7 | 89.7 | -1.8 | i | 0.98 | 104.2
57 | CCOc1ccc(NC(=S)N/N=C(\C)Cc2ccc(OC)cc2)cc1 | -17.2 | 7.4 | 90.4 | -1.0 | i | 1.02 | 117.6
58 | O=C(Nc1nc(-c2ccccn2)cs1)C1CC(=O)N(c2ccc3c(c2)OCCO3)C1 (stereo unspecified) | 2.1 | 13.8 | 76.6 | -2.3 | i | 0.88 | 86.0
59 | c1ccc2c(-c3[nH]ncc3CNCCCn3ncc4ccccc43)cccc2c1 | 0.5 | x | x | x | i | 0.98 | 119.6
60 | Cc1cccc(NC(=O)Cn2c(O)c(N=NC(N)=S)c3ccccc32)c1 | x | x | x | x | i | 0.76 | 97.2

Next results follow.
# | Compound | PKD1 kinase inh | INS promoter inh | INS promoter inh cell count | GALR2 ag | HSV replic up | HSV replic up primary fold | RGS16-Gao
61 | CCCCC1NC(=S)N(C2CCCCC2)C1=O (stereo unspecified) | -2.9 | -10.5 | 92.4 | 7.1* | i | 1.01 | 105.3
62 | CCc1nc2c(c(=O)[nH]1)C1(CCCC1)Cc1ccccc1-2 | -4.8 | 7.1 | 116.0 | -1.7 | i | 1.12 | 98.6
63 | CC(=O)c1cc2c(cc1NC(=O)c1ccc(C)cc1)OCO2 | -2.6 | 52.4 | 128.6 | -0.6 | i | 0.94 | 103.1
64 | Cc1ccc(S(=O)(=O)NC(=O)NN2CCCCCC2)cc1 | -0.3 | 4.8 | 114.5 | -2.7 | i | 0.85 | 100.3
65 | S=c1[nH]nc(-c2cc(-c3ccccc3)n[nH]2)n1/N=C/c1ccc(Cl)cc1 | x | x | x | x | i | 1.12 | 97.7
66 | COc1ccc(C2CC(c3ccccc3)Nc3nc(NC(=O)c4cccs4)nn32)cc1 (stereo unspecified) | -0.2 | i | 15.6 | -0.4 | i | 0.96 | 103.2
67 | O=C(Cn1cnc2c(nnn2-c2ccccc2)c1=O)NCC1CCCO1 (stereo unspecified) | 2.2 | -57.1 | 49.5 | -1.3 | i | 0.85 | 101.6
68 | CCN(CC)S(=O)(=O)c1ccc(C(=O)NC2=C(C(=O)OC)SCC2)cc1 | -4.3 | 0.0 | 115.3 | -0.1 | i | 1.22 | 105.6
69 | N#CC1=C(S)N=C(N)C(c2nc(-c3ccccc3)cs2)C12CCCC2 (stereo unspecified) | -4.4 | -10.8 | 30.5 | -2.0 | i | 0.92 | 77.6
70 | Cc1ccc(Oc2ncccc2/C=N/O)cc1 | -0.4 | -13.8 | 149.6 | -1.8 | i | 0.92 | 102.5
71 | O=C(/C=C/Nc1ccc(F)cc1Br)c1ccccc1 | -2.6 | 60.0 | 103.7 | -0.6 | i | 0.96 | 100.1
72 | Cc1cccc(-c2cc3c(N=O)c4ccccc4c-3n[nH]2)c1 | 3.7 | x | x | x | i | 0.64 | 102.4
73 | O=C(NCC1COc2ccccc2O1)C1CCCN(S(=O)(=O)c2cccc3nsnc23)C1 (stereo unspecified) | 1.4 | 38.5 | 97.0 | -1.9 | i | 1.08 | 89.8
74 | N/C(=N\OC(=O)CCCOc1ccccc1)c1cccc([N+](=O)[O-])c1 | 2.5 | 33.3 | 109.8 | x | i | 1 | 102.2
75 | COc1ccc(NC(=S)NNC(=O)C(C)n2nc(C)c([N+](=O)[O-])c2C)cc1 (stereo unspecified) | 1.1 | -30.4 | 131.3 | -1.7 | i | 0.95 | 108.5
76 | COc1ccc(NC(=O)C(Sc2nnc(-c3ccncc3)n2-c2ccccc2C)c2ccccc2)cc1Cl (stereo unspecified) | -3.6 | -62.5 | 43.5 | -1.0 | i | 0.81 | 103.4
77 | CC1(C)NC(=O)N(CCSc2ccc(Cl)cc2)C1=O | -4.3 | -30.8 | 114.5 | -2.6 | i | 0.8 | 106.3
78 | Cc1cc(-c2ccccc2)nc(Cl)c1C#N | 13.1 | 0.0 | 114.5 | -0.3 | i | 0.9 | 102.7
79 | Cn1c(O)c(C=NCC2CCNCC2)c(=O)n(C)c1=O | 7.4 | 60.0 | 114.7 | -2.6 | i | 0.8 | 111.4
